# Compound activity (PubChem BioAssay)
# RecA splice inh: Mtb RecA intein splicing inhibitors, primary screen, biochemical, fluorescence, HTS; Protein RecA (Mycobacterium tuberculosis (strain ATCC 25618 / H37Rv)), P9WHJ3; cell-free RecA intein splicing; inhibition, %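 (about 9 µM by stock and volumes)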; 290,000 compounds, 0.75% hits; in the data active means inhibition above about 30%; inconclusive means no clear call, values can overlap the other calls;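 further: 0% = vehicle wells and 100% = reference inhibitor control wells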
# Target sequence (P9WHJ3 whole entry, looked up, canonical isoform): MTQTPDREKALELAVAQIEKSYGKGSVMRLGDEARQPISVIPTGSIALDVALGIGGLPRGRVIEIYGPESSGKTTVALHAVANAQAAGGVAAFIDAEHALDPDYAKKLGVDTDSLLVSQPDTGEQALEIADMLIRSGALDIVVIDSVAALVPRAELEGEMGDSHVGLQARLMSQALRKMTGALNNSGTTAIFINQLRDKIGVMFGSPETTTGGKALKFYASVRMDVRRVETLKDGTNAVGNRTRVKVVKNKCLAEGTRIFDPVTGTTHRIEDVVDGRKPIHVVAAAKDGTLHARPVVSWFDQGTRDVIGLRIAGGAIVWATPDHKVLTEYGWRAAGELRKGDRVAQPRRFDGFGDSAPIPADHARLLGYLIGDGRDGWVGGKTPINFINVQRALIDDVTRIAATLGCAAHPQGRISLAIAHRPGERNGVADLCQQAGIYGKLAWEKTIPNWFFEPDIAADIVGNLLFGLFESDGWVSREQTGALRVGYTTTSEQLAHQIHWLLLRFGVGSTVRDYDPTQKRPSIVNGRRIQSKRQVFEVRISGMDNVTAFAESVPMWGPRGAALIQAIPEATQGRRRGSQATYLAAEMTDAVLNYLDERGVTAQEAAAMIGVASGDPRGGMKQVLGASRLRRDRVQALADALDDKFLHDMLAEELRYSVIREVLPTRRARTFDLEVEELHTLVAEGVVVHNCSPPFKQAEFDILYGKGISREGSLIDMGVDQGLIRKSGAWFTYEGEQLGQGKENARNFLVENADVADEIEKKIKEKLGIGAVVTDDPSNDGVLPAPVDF
# Mtb bLac sens: beta-lactam sensitization of Mtb H37Rv, H37Rv | inhibition, % at 25 µM | AID 434955, 2010 | 330,000 compounds, 0.27% hits | M. tuberculosis H37Rv growth with meropenem, percent inhibition; hits of this screen are not shown here;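 active means about 74% or more and at least 40 points above the plate without the antibiotic, then above 30% in a dose series; inconclusive means first-round hits that could not be retested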;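 further: growth measured after seven days incubation then overnight dye step; 0% = bacteria only wells and 100% = bacteria with antibiotic; twin plates without the antibiotic show which effects depend on it; some results filed as inactive read as strong as hits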
# Arbovirus inh: antivirals against arbovirus infection, primary screen, cell-based, full library, 10K replicate subset; arbovirus infection cell-based antiviral screen; inhibition, % at 10 µM; 200,000 compounds, 0.37% hits; AID 1251, 2008;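 active means inhibition from about 30%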;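 further: bluetongue infection of BSR cells; cell survival read as ATP light after 72 h; 0% = infected wells without compound and 100% = uninfected wells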
# YopH PTP inh: YopH tyrosine phosphatase inhibitors, primary screen, biochemical, fluorescence Ex485/Em525. YopH tyrosine phosphatase [Yersinia enterocolitica]. inhibition, %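 (about 10 µM by stock and volumes)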. 140,000 compounds, 0.16% hits. AID 898, 2007;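 active means inhibition of 50% or more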;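 further: controls were vehicle for no effect and minimum signal wells for full effect; inactives centre near -20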
# Mtb H37Rv: M. tuberculosis H37Rv growth inhibitors, H37Rv strain (AID 1626); M. tuberculosis H37Rv growth inhibition; higher % means a stronger effect; inhibition, % at 10 µM; hits with a dose series show IC50 in µM; 220,000 compounds, 0.95% hits;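 active means confirmed in a dose series; inconclusive means inhibition above 80% but not taken into the dose series; inactive means below 80% or under 30% at every dose of the series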;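 further: bacteria incubated seven days before Alamar blue readout; 0% = bacteria only wells and 100% = bacteria with antibiotic wells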
# Arbovirus inh repeat: second read-out of Arbovirus inh, no call of its own (marks repeat the call); inhibition, %; measured here: 10K subset replicate screen; many hits read low in the repeat;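 first of two repeat runs on a subset; 0% = infected and 100% = uninfected wells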
# Starred values were filed as active, the others as inactive; ? = inconclusive; . = no result given.
SMILES,RecA splice inh,Mtb bLac sens,Arbovirus inh,YopH PTP inh,Mtb H37Rv,others
COc1ccc(Br)c(/C=N/NC(=O)COc2ccc(-c3ccccc3)cc2)c1,-0.3,-9.0,-6.7,-5.3,-0.4%,
C=CCSc1ccccc1C(=O)Nc1ncn[nH]1,-0.4,-5.5,.,.,.,
O=C(NC1CCCc2ccccc21)C1CCN(S(=O)(=O)c2ccccc2F)CC1 (stereo not given),8.5,1.9,6.6,-21.2,4.0%,
COCCn1c(N)c(NCc2ccccc2)c(=O)[nH]c1=O,-30.5,-5.4,.,.,.,
O=C(CC1OC(=O)c2ccccc21)Nc1cc(Cl)ccc1N1CCCC1 (stereo not given),0.0,0.5,.,.,.,
CCCCc1ccc(N=N/C(C(=O)Nc2ccccc2OC)=C(/C)O)cc1,-2.5,3.6,6.6,-21.8,9.5%,
FC(c1nc2ccccc2[nH]1)C(F)(F)F (stereo not given),2.7,3.5,3.5,.,-1.0%,
CN(C)c1ccc(C2N(C(=O)N3CCOCC3)CCN2S(=O)(=O)c2ccccc2)cc1 (stereo not given),-1.5,2.6,-3.1,-1.0,-6.8%,
O=C(O)c1ccccc1Sc1c([N+](=O)[O-])cc(C(F)(F)F)cc1[N+](=O)[O-],22.2,-2.6,30.9*,.,3.1%,
CC(C)(CNC(=O)C1CCCC1)CNC(=O)C1CCCC1,-0.7,-13.6,-3.2,-5.4,-4.8%,
Cc1cc([N+](=O)[O-])nn1CC(=O)Nc1cccc2nonc12,13.1,-1.6,26.0,.,3.2%,
CCN1C(=O)N[C@@H](c2ccc(Br)cc2)C(C(C)=O)=C1C,1.7,-1.0,.,.,6.4%,
Cc1ccc(C(=O)CCC(=O)OCC(=O)Nc2c(C)nn(-c3ccccc3)c2C)cc1,-1.6,-5.7,.,.,.,
COc1ccc(Cl)cc1N(CC(=O)N1CCN(Cc2ccccc2)CC1)S(C)(=O)=O,4.2,-2.9,4.9,-31.1,-12.4%,Arbovirus inh repeat=-0.4
CCOn1c(=O)c(-c2ccc(Cl)cc2)[n+]([O-])c2ccccc21,0.0,0.8,2.9,-12.7,7.6%,
COc1ccc(S(=O)(=O)N2CCC(C(=O)NCc3cccc(OC)c3)CC2)cc1,-1.7,-8.3,4.8,-50.0,-2.4%,
CC(C)(C)NC(=O)/C(=C\C=C\c1ccccc1)NC(=O)c1ccc([N+](=O)[O-])cc1,.,14.7,-3.6,-23.9,0.6%,
Cn1ccc(C(=O)Nc2ccc(Br)cc2Br)n1,-1.2,2.6,-3.3,-26.5,-0.3%,
COC(=O)CCCC1=CC2=C(c3ccccc3)C(=O)C(C)(OC(=O)C3CCCC3)C(=O)C2=CN1CCc1ccccn1 (stereo not given),13.3,-0.3,.,.,-6.7%,
CCOC(=O)c1c(NC(=O)C2=C(C)NC(=S)NC2c2ccccc2C(F)(F)F)sc(C)c1C (stereo not given),-2.9,-3.3,-8.2,-2.9,14.2%,
COCc1nnc(NC(=O)c2ccc(S(=O)(=O)N(CC(C)C)CC(C)C)cc2)o1,3.4,-0.9,-16.4,.,-14.5%,
Cc1onc(-c2ccccc2)c1C(=O)N1CCN(C(=O)c2ccco2)CC1,-0.9,7.3,9.5,-25.0,-4.1%,
Cc1ccc(CN2CCC(CNS(=O)(=O)c3ccc(-c4ccc(=O)[nH]n4)s3)CC2)cc1,1.1,2.7,.,.,.,
O=S(=O)(c1cccs1)N1CCN(CCc2ccccc2)CC1,2.0,-6.3,.,.,.,
C/C(=N\O)c1sc(-c2ccccc2)nc1C,1.5,.,-7.1,.,9.9%,
COc1ccc(N2C(=O)CC(Sc3nc4ccccc4s3)C2=O)cc1 (stereo not given),2.6,-2.8,17.3,.,16.3%,
COC(=O)c1ccccc1NC(=O)CN(c1cc(OC)ccc1OC)S(C)(=O)=O,0.9,-9.3,8.9,-17.5,-2.5%,
Cc1cccc(CSCc2nnc(N)s2)c1,-0.7,-6.9,-1.6,-32.7,3.3%,
CCN(CC)S(=O)(=O)c1cc(C)c(C)cc1Br,0.9,16.1,-6.6,10.7,-8.4%,
COc1ccc(C(C)(C)NC(=O)C2CCC(=O)N(C3CCCC3)C2)cc1OC (stereo not given),-3.6,-20.5,.,.,.,
O=C(CSc1ncn(-c2ccccc2)n1)Nc1nc2c(s1)CCCC2,5.3,15.0,2.6,-8.6,3.1%,
COc1ccc(-n2ncc3c2CC(C)(C)CC3NC(=O)CN2CCOC2=O)cc1 (stereo not given),-2.5,5.8,.,.,.,
Cc1cc(C(=O)CCl)c(C)n1CC1COc2ccccc2O1 (stereo not given),40.6*,98.9,-34.6,.,66.3%,
COCCNC(=O)c1ccc2c(Cl)c3c(nc2c1)CCC3,-0.5,7.1,.,.,.,
CN(C)c1ccc(/C=C/c2ccncc2)cc1,.,.,-10.7,-4.5,7.5%,
Cc1sc(NC(=O)CN(Cc2ccccc2)C(=O)C(C)C)c(C(N)=O)c1C,0.4,-6.0,1.4,-35.5,-0.2%,
Cc1ccc(C2NC(=NCc3ccccc3)Nc3nc(C)cc(=O)n32)cc1 (stereo not given),0.6,-13.3,.,.,5.2%,
Cc1ccc(S(=O)(=O)n2nc(OC(=O)c3c(F)cccc3Cl)cc2N)cc1,-1.3,4.4,.,.,.,
CCN(CC)CCCn1c(=S)[nH]c2cc(C(=O)OC)ccc2c1=O,-6.8,-0.5,-3.2,-0.1,-3.5%,
COc1ccc(/C=N/NS(=O)(=O)c2ccc(NC(C)=O)cc2)cc1,-0.5,-8.9,.,.,-7.4%,
Cc1ccc(C)c(CN2CCCN(Cc3cc(C)ccc3C)S2(=O)=O)c1,0.7,5.0,.,.,.,
Clc1ccc(-n2nnnc2-c2cnc(-c3ccccn3)nc2-c2cccs2)cc1,-1.5,77.0,-8.9,-11.1,-4.6%,
CC(C)=CCc1c(O)cc(O)c2c1OC(c1ccc(O)cc1)CC2=O (stereo not given),.,0.9,.,.,1.1%,
COc1cccc(/C=N/Nc2ccc([N+](=O)[O-])cc2)c1O,-2.4,61.1,.,.,.,
COc1ccnc(-n2cccc2C=O)c1C#N,2.3,-0.2,0.1,.,-3.8%,
COC(=O)/C(C(C)=O)=C(\C=C\N(C)C)N(C)C,0.3,-2.0,8.1,-10.8,-6.4%,
C/C(O)=C/c1nc2ccccc2[nH]c1=O,5.6,-0.9,-2.3,-21.0,2.4%,
Cc1csc(NC(=O)CSc2nnc(-c3ccoc3C)n2CCc2ccccc2)n1,4.4,-1.4,4.5,-12.9,-9.3%,
Cc1ccc(OCCC(=O)OCC(=O)C(C)(C)C)cc1,1.2,98.4,1.6,-19.0,3.1%,
COc1ccc(C(=O)NN/C(C)=C/C(=O)C(F)(F)C(F)(F)C(F)(F)F)cc1,9.0,3.7,85.0*,-40.0,6.2%,
C=CCn1c(O)c(C(CC)=Nc2ccc(NC(C)=O)cc2)c(=O)[nH]c1=O,-1.0,13.9,.,.,1.7%,
O=C(Cn1cnc2c(nnn2-c2ccc(F)cc2)c1=O)NCC1CCCO1 (stereo not given),1.1,-1.6,-2.5,-26.2,-4.7%,
Cc1ccccc1C(=O)c1cccn1CC(=O)NC(C)c1ccccc1 (stereo not given),3.4,-7.5,.,.,.,
Cc1ccc(S(=O)(=O)NNC(=O)C2COc3ccccc3O2)cc1C (stereo not given),-5.3,-4.4,10.1,.,-8.2%,
CCOc1ncccc1C(=O)NCc1ccccc1Cl,2.9,-0.9,-2.0,.,2.0%,
O=C(COC(=O)c1cccc(C(=O)OCC(=O)NC2CC2)n1)NC1CC1,-3.6,3.0,1.9,.,3.6%,
Cc1ccccc1C(=O)NC1CCN(C(=O)NCc2ccccc2)CC1,-0.4,-2.1,.,.,.,
O=C(CSc1nnc(-c2ccc(Cl)s2)o1)N1CCc2ccccc21,1.2,18.5,.,-21.2,8.0%,
CN(C)c1cc[n+](CC(=O)c2ccc(-c3ccccc3)cc2)cc1,.,-3.6,8.5,.,-7.9%,
CCCCOc1ccc(C(=O)OCC(=O)Nc2cc(C)on2)cc1,2.8,-3.1,7.3,.,11.2%,
# (next part)
SMILES,RecA splice inh,Mtb bLac sens,Arbovirus inh,YopH PTP inh,Mtb H37Rv,others
COc1ccc(CN2CCC(=O)N([C@H](CO)Cc3ccccc3)CC2)cc1,2.1,-11.0,.,.,.,
CC(C)CC(=O)c1c[nH]c(C(=O)O)c1,-0.5,5.5,-1.5,.,1.1%,
O=c1[nH]c(CN2CCN(c3ccc(O)cc3)CC2)nc2scc(-c3ccc(Cl)cc3)c12,2.7,89.1,-30.2,.,72.7%,
CCc1cc(C(=O)OC)c(NC(=O)c2ccoc2C)s1,0.2,11.1,.,.,.,
CCCC(=O)Nc1nnc(-c2ccccc2)o1,0.0,1.7,0.7,.,.,
NNC(=O)c1ccc(COc2ccc3ccccc3c2)cc1,-1.8,94.8,.,.,6.7%,
COc1ccc(S(=O)(=O)N2CCCC(C(F)(F)F)C2)cc1 (stereo not given),-1.5,-3.2,15.4,.,2.2%,
CN1CCN(c2c(F)cc3c(=O)c(C(=O)O)cn4c3c2OCN4C)CC1,-1.0,100.0,.,.,?,
O=[N+]([O-])c1ccc2ncnc(N3CCN(Cc4ccc5c(c4)OCO5)CC3)c2c1,5.9,5.6,.,.,.,
O=C(NNS(=O)(=O)c1ccc(Cl)cc1)c1sccc1-n1cccc1,-0.6,3.9,5.1,-61.6,-3.5%,
O=C(c1cnccn1)N(Cc1cccs1)C1(C(=O)NC2CCCC2)CCCCC1,-0.2,3.6,-9.3,-14.0,14.1%,
CCOc1ccc(-n2c(SCC(=O)Nc3ccc4c(c3)OCCO4)nc3c(c2=O)SCC3)cc1,.,0.5,-2.2,-37.6,-9.4%,Arbovirus inh repeat=-2.3
CC(=O)Nc1cc(NC(C)=O)cc(C(=O)N2CCCC3CCCCC32)c1 (stereo not given),3.8,2.5,.,.,.,
Cc1ccc(-c2nc(C#N)c(N3CCCCC3)o2)cc1,2.9,4.1,3.0,-23.6,11.3%,Arbovirus inh repeat=4.4
COc1ccc(OCC(=O)Nc2ccc3c(c2)nc(CCN2CCCC2)n3C)cc1,-1.5,1.5,.,.,.,
COc1cc(C(C(=O)NC2CCCCC2)N(Cc2ccco2)C(=O)c2cnccn2)cc(OC)c1OC (stereo not given),-1.8,-1.0,1.9,.,-4.5%,
Cc1cc(S(=O)(=O)NCC(C)C)ccc1OCC(=O)N1CCN(Cc2ccccc2)CC1,4.2,-2.3,6.7,3.5,8.3%,
Cc1nc(Nc2ccc(F)cc2)nc(Nc2ccc(F)cc2)c1[N+](=O)[O-],-0.9,-5.5,.,.,3.7%,
CCCCN(C)C(=O)Cn1cnc2sc(C)cc2c1=O,-0.3,-4.6,-5.8,-30.1,-3.0%,
COc1ccc(Cc2nnc(Nc3ccccc3)s2)cc1Br,-2.1,1.2,.,.,.,

# Two entries drawn at random from the list so far:
SMILES,RecA splice inh,Mtb bLac sens,Arbovirus inh,YopH PTP inh,Mtb H37Rv,others
CCc1cc(C(=O)OC)c(NC(=O)c2ccoc2C)s1,0.2,11.1,.,.,.,
O=C(c1cnccn1)N(Cc1cccs1)C1(C(=O)NC2CCCC2)CCCCC1,-0.2,3.6,-9.3,-14.0,14.1%,

# The listing picks up with the 2 entries that preceded the break.
SMILES,RecA splice inh,Mtb bLac sens,Arbovirus inh,YopH PTP inh,Mtb H37Rv,others
CCCCN(C)C(=O)Cn1cnc2sc(C)cc2c1=O,-0.3,-4.6,-5.8,-30.1,-3.0%,
COc1ccc(Cc2nnc(Nc3ccccc3)s2)cc1Br,-2.1,1.2,.,.,.,
Cn1c(=O)c2c(=O)cc(N)[nH]c2n(C)c1=O,-3.9,-11.2,.,.,1.8%,
CCSc1cc(N2CCCC2)nc(-c2ccccc2Cl)n1,5.1,4.8,-6.4,-26.0,6.4%,
COc1ccc(C(=O)NCCN2CCOCC2)cc1OC,3.2,8.2,4.9,-23.1,-7.6%,
CCOC(=O)C(=CNc1ccc(C(F)(F)F)cc1Cl)C(=O)OCC,4.9,?,.,.,7.4%,
COc1cc2c(cc1NC(=O)CSc1ccccc1)oc1ccccc12,-1.3,-1.8,-8.3,-18.4,83.0%,

# Entries listed so far with a tert-butyl group (2):
SMILES,RecA splice inh,Mtb bLac sens,Arbovirus inh,YopH PTP inh,Mtb H37Rv,others
CC(C)(C)NC(=O)/C(=C\C=C\c1ccccc1)NC(=O)c1ccc([N+](=O)[O-])cc1,.,14.7,-3.6,-23.9,0.6%,
Cc1ccc(OCCC(=O)OCC(=O)C(C)(C)C)cc1,1.2,98.4,1.6,-19.0,3.1%,

# This is a subset; count on the stated rates, not on these rows.
